Screening data as filed in PubChem BioAssay.
Six1-Eya2 inh = qHTS Assay for Inhibitors of the Six1/Eya2 Interaction. Homeobox protein SIX1 (Homo sapiens) + Protein phosphatase EYA2 (Homo sapiens), …. AlphaScreen GST-Six1/His-Eya2 binding, biochemical; active compounds read low; control for the full effect not named in the record. activity change, % (test concentration not listed). 360,000 compounds, 0.56% hits. AID 651725, 2012; in the data active = activity change below about -65%; inconclusive = about -30% to -65%; inactive = above about -30%; further: on the % scale 0 is the no-effect control and ±100 the full control effect
Target sequence (O00167 whole entry, looked up): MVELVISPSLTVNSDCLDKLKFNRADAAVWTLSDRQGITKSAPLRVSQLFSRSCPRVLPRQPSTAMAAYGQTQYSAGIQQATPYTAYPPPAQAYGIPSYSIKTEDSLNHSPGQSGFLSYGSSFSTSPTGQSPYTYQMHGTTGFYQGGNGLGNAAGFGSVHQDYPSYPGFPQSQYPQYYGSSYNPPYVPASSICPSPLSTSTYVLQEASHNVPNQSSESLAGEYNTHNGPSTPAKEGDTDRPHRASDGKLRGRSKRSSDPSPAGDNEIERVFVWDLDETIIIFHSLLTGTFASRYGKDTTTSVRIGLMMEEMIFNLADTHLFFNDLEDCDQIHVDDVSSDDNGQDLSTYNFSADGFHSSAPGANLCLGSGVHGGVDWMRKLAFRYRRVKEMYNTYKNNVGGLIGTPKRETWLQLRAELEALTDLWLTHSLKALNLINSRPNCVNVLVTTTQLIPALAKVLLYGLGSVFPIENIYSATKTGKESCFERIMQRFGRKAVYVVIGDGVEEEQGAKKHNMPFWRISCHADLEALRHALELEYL
Target sequence (Q15475 whole entry, looked up): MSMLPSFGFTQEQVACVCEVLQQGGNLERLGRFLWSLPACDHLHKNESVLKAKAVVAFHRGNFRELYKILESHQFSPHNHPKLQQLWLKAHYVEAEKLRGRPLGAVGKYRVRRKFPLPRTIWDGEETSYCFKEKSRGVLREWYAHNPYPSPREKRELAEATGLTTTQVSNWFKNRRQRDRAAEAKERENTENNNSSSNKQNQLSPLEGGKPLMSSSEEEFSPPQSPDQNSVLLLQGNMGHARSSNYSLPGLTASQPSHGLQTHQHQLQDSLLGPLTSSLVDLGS
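Six1/Eya2 binding was read as AlphaScreen signal after compounds were pinned into GST-Six1 plus His-tagged Eya2 (5X stock 250/500 nM) in pH 8.0 Tris/NaCl/TCEP buffer, beads added, then incubated 1 h, 37 C, dark.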
TRPML1 ag = qHTS for Agonists of the Human Mucolipin Transient Receptor Potential 1 (TRPML1); Mucolipin-1 (Homo sapiens), Q9GZU1; TRPML1-expressing cells, Ca2+ dye fluorescence, FDSS; host cell line not named in the record; reference of the full effect not given here; activation, % (test concentration not listed); 410,000 compounds, 0.12% hits; AID 624414, 2012; in the data active = activation above about 50%; inconclusive = about 30% to 50%; inactive = below about 30%; further: 0% is about no effect; the text of the record puts the active cut at 80%
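Cells: TRPML1-DL, 1X Tet inducer, ~16 h at 37 degrees C/5% CO2. Dye: ABD Ca8 no-wash + quencher, 45-90 min RT. Read: 10 s baseline, compound add, 110 s agonist phase; 54-4 EC80 (4uM final), 110 s antagonist phase.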
D2 agonist = Beta-Arrestin HTS for Positive Allosteric Modulators of the Human D2 Dopamine Receptor: Agonists; AID 624465, 2012; 360,000 compounds, 0.084% hits; activation, % (concentration not given with the values); DiscoveRx PathHunter D2 beta-arrestin, luminescence, 90 min; 100% = 57 uM dopamine signal; D(2) dopamine receptor (Homo sapiens), P14416; in the data active = activation above about 40%; inconclusive = about 15% to 40%; inactive = below about 15%; further: the text of the record calls up to 30% inactive
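Agonist mode: compounds alone added to overnight-plated D2 PathHunter cells for 90 min at 37 C, with 57 uM final dopamine (EC100) defining full response. Beta-arrestin recruitment detected by chemiluminescent reagent, read after 1 h at ambient temperature.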
D2 PAM = Beta-Arrestin HTS for Positive Allosteric Modulators of the Human D2 Dopamine Receptor: Potentiators; potentiation, % (no concentration beside the values); D(2) dopamine receptor (Homo sapiens), P14416; DiscoveRx D2 beta-arrestin cells, luminescence, 90 min; 100% = 57 uM dopamine signal; 360,000 compounds, 0.23% hits; active = potentiation of 50% or more; inconclusive = 30% to 50%; inactive = 30% or less;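 further: compound concentration not given in the record; tested on top of an EC20 dose of dopamine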
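PathHunter D2 cells, attached overnight at 37 deg C, received compound in DMSO plus dopamine at EC20 (50 nM final) for 90 min at 37 deg C. Beta-arrestin recruitment was read as luminescence after 1 h with detection reagent at ambient temperature.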
PINK1 modulator = A Quantitative High throughput Screen to Identify Chemical Modulators of PINK1 Expression; PINK1 immunofluorescence, high-content cytometry, 24 h; Potency, µM (highest dose often 76.6 µM), for inactives: top-dose activation (PINK1 increase), usual class: activators; 410,000 compounds, 0.2% hits; AID 624263, 2012; active = well fitted activation curve with a large enough effect; inconclusive = small, poorly fitted or top-dose-only effect; inactive = flat fitted curve, though single readings scatter; cell line not stated here;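 further: potency means the concentration at half of the fitted maximal effect; % of control where 0% means no effect; nearly all actives have a fitted effect of over 65% in size; a mitochondrial uncoupler was the plate control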
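PINK1 protein, normally rapidly degraded, was detected by immunofluorescence after 24 hour compound treatment of a stable cell line. Titration data (5 concentrations) came from laser-scanning cytometry, with CCCP-treated wells as controls.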
CtBP-E1A blk = qHTS Assay for Inhibitors of the CtBP/E1A Interaction. CtBP / adenovirus E1A interaction (AlphaScreen). AlphaScreen GST-E1A/His-CtBP binding, 1536-well; active compounds read low; control for the full effect not named in the record. activity change, % (test concentration not listed). 340,000 compounds, 0.49% hits; in the data active means activity change below about -65%; inconclusive means about -30% to -65%; inactive means above about -30%; further: on the % scale 0 is the no-effect control and ±100 the full control effect
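In 5 uL wells, 23 nL compound meets equimolar GST-E1A and His-CtBP (5X stock 125 nM each) for 2 h, 37 °C. Beads (5X, 50 ug/mL) then 1 h, 37 °C, dark.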
* marks the source's active call; other numbers are inactive results; ? = inconclusive; . = not tested or not shown; & = joins results of further samples; [ ] = another dose, or the depositor's remark.

SMILES	Six1-Eya2 inh	TRPML1 ag	D2 agonist	D2 PAM	PINK1 modulator	CtBP-E1A blk
O=C(COC(=O)c1cnc(Cl)c(Cl)c1)NCc1ccc2c(c1)OCO2	7	0.2	-3.1	-9	4.1%	0
O=S(=O)(Nc1ccc(-c2cn3ccsc3n2)cc1)c1ccc2c(c1)OCCO2	-24	2.9	1.3	15	-0.3%	?
O=C(N/C(=C/c1ccccc1)C(=O)N1CCCCC1)c1ccco1	0	0.1	0.0	-2	0.8%	-22
O=C(NNC(=O)c1ccccc1Br)c1cccs1	14	1.4	1.6	-2	1.6%	4
Cc1ccc([C@H]2C[C@@H](O)[C@H](n3cc(COC(=O)c4ccccc4)nn3)CN2C(=O)c2cccs2)cc1	-11	0.6	-7.7	-4	1.5%	-18
CCOc1ccc(/C=N/OCC(=O)Nc2ccc3c(c2)OCO3)cc1	-4	5.3	5.1	-4	1.1%	-1
N#Cc1c(-c2ccc(Cl)cc2)c2c([nH]c1=O)-c1ccccc1OC2	-2	-0.3	-3.0	-4	?	11
COc1cc2c(cc1OC)CN(Cc1cc(=O)oc3c(C)c(C)ccc13)CC2	-6	0.0	-3.8	-13	4.7%	6
CCC(C)N(C(=O)COC(=O)CSc1ccc(C)c(C)c1)C1CCS(=O)(=O)C1 (configuration not stated)	-2	-1.0	-3.0	1	3.4%	.
Fc1cccc(Cl)c1CNC(c1ccccc1)c1ccccc1	65	1.1	-3.6	-9	19%[38.3 µM]	-4
Cc1nn2c(nc1=O)NNC2(C)C(C)(C)C (configuration not stated)	-21	.	-2.7	-2	1.3%	-25
COc1ccccc1CNC(=S)NC1CCCC1	1	0.6	-6.7	-6	-0.2%	-24
CC12CCC(C(=O)N3CCc4ccccc43)(CC1=O)C2(C)C (configuration not stated)	-1	-0.4	1.9	23	0.6%	-1
COc1ccc([N+](=O)[O-])c(OC)c1C(=O)NC(=O)Nc1c(F)cc(F)cc1F	-1	0.4	-2.2	-4	-0.7%	-1
C#CCOC(=O)C(NC(=O)c1ccccc1)=C1CCCCC1	11	-0.2	-0.4	-26	4.3%	13
CCOC(=O)CCCCCC(=O)Nc1ccc2c(c1)C(=O)N([C@@H](C)CO)C[C@@H](C)[C@H](CN(C)S(=O)(=O)c1cccs1)OCCCC[C@H](C)O2	0	.	-0.6	.	0.6%	0
CCCN=C1N(CC)C[C@@H]2[C@@H]3C(=O)N(C)C(=O)[C@@H]3[C@](CC)(C(=O)OC)N12	-1	-0.4	-3.6	-4	0.0%	-2
O=C(Nc1ccc(S(=O)(=O)Nc2nccs2)cc1)C1CC(=O)N(c2ccccc2)C1 (configuration not stated)	-1	-0.1	6.2	12	-0.4%	1
O=C(Nc1ccc(Oc2ccc3ccccc3c2)cc1)c1ccco1	3	0.3	-0.3	0	2.6%	3
COc1ccc(S(N)(=O)=O)cc1-c1nnc2c3ccccc3c(C)nn12	-2	.	0.6	0	1.8%	.
N#C/C(=C\c1ccc(OCc2ccc(Cl)cc2)cc1)C(=O)Nc1cccc(C(=O)O)c1	-7	2.1	0.2	-2	1.0%	13
Cc1cc(Nc2cccc(F)c2)nc(NCc2ccccc2)n1	9	0.9	4.7	-21	-1.2%	-3
COc1ccccc1NC(=O)CN1CCN(Cc2ccccc2)CC1	-1	-0.6	-2.0	-21	-2.2%[38.3 µM]	2
O=C(NCc1ccc(Cl)cc1)c1ccc(CSc2nc3ccncc3[nH]2)cc1	-5	2.6	3.7	0	1.4%	-2
Cc1ccc(C(C)C)c(OCCOCCN2CCNCC2)c1	-1	0.8	-0.1	-12	-0.5%	-3
COc1ccc(NC(=O)N2Cc3ccccc3CC2C(=O)NC(C)(C)C)cc1 (configuration not stated)	2	0.1	-0.6	-6	1.3%	3
Cc1ccc(S(=O)(=O)N2CCCCC2c2cccnc2)c(C)c1C (configuration not stated)	5	-0.5	-7.0	-25	0.9%	.
CCOc1ccc(NC(=O)C2CCCN(S(=O)(=O)c3c(C)noc3C)C2)cc1 (configuration not stated)	0	0.7	-0.2	-1	6.5%	-1
O=C1NC(=S)N/C1=C/c1cccc([N+](=O)[O-])c1O	-8	0.0	-10	-36	3.1%	-16
COc1ccccc1-c1csc(Cc2nnc3n2CCCCC3)n1	-2	-0.5	-1.0	?	0.1%	-2
CCc1nc(CN(C)C(=O)C2CCC(=O)N(Cc3cccc(F)c3)C2)no1 (configuration not stated)	-1	-0.6	-1.4	-4	-1.1%	1
CCN(CC)CCNC(=O)C(=O)Nc1cc2c3c(c1)CCN3C(=O)CC2	5	0.9	2.5	-6	-1.3%	.
Cc1nc2cc(-c3ccccc3)nn2c(C)c1CCC(=O)N1CCN(c2ccccc2)CC1	7	-0.3&-0.6	-1.4	-8	0.6%&0.9%	4
O=C(COc1ccc(Cl)cc1Cl)NNC(=O)c1cccnc1	6	-0.1	-1.7	-7	-2.1%	1
Cc1ccc(S(=O)(=O)N2CCC(C(=O)N3CCC3)CC2)cc1	-3	0.8	-0.6	-2	-0.9%	-1
COc1ccc(NC(=O)/C(C#N)=C/c2ccc(OCc3ccccc3F)cc2)cc1	5	0.2	5.0	5	1.1%	12

A different layout for two compounds above:
> CCC(C)N(C(=O)COC(=O)CSc1ccc(C)c(C)c1)C1CCS(=O)(=O)C1 (configuration not stated)
  Six1-Eya2 inh: -2 | TRPML1 ag: -1.0 | D2 agonist: -3.0 | D2 PAM: 1 | PINK1 modulator: 3.4% | CtBP-E1A blk: .
> Fc1cccc(Cl)c1CNC(c1ccccc1)c1ccccc1
  Six1-Eya2 inh: 65 | TRPML1 ag: 1.1 | D2 agonist: -3.6 | D2 PAM: -9 | PINK1 modulator: 19%[38.3 µM] | CtBP-E1A blk: -4

Continued:
SMILES	Six1-Eya2 inh	TRPML1 ag	D2 agonist	D2 PAM	PINK1 modulator	CtBP-E1A blk
CCCNC(=O)c1cc(C2CCCCN2S(=O)(=O)c2ccc(OC)cc2)on1 (configuration not stated)	8	-1.2	-1.3	-2	0.9%	-24
COc1ccc(-c2noc(CN3C(=O)c4ccccc4C3=O)n2)cc1	0	0.2	-1.9	-3	-3.6%	5
CCOC(=O)N1CCN(C(=O)C2CCN(C(=O)c3ccccc3C)CC2)CC1	-29	2.1	-8.9	-8	0.5%	-11
O=C(COC(=O)c1ccc(Br)o1)NC1CCCc2ccccc21 (configuration not stated)	10	0.8	-5.1	-4	-0.7%	.
COc1ccc(C(=O)NCC(c2ccco2)N2CCCCC2)cc1S(=O)(=O)Nc1ccc(C)cc1 (configuration not stated)	3	0.2	-3.2	-18	3.5%	.
Cc1ccnc(SCc2cc(=O)c(OC(=O)c3ccc(S(=O)(=O)N(C)C)cc3)co2)n1	4	0.5	0.2	20	4.3%	-1
O=C(NCCN1CCC(n2c(=O)[nH]c3ccccc32)CC1)c1ccc2ccccc2c1	-9	-0.9	.	.	0.5%	5
COC(=O)c1sccc1NC(=O)Nc1cccc(F)c1	-12	-0.9	-3.2	1	5.1%	-13
COc1cccc(-c2noc(CCC(=O)NC3CCCCC3)n2)c1	4	-0.3	-1.0	-15	.	10
CC(=O)C1=C(c2ccccc2)NC(=O)NC1c1ccccc1OCC#N (configuration not stated)	5	0.5	-0.4	5	.	4
CC(C)c1nnc(NC(=O)Cc2cccs2)s1	7	1.1	-3.1	1	0.0%	0
CCOc1ccccc1NC(=S)NNS(=O)(=O)c1c(C)cc(C)cc1C	-1	0.5	-2.4	-7	0.6%	-3
O=C(NCc1ccccn1)C1CC(c2ccccc2Cl)=NO1 (configuration not stated)	-1	0.8	0.7	2	0.3%	-1
COc1ccc(CCN2C(=O)NC(NC(=O)CCc3ccccc3)(C(F)(F)F)C2=O)cc1OC (configuration not stated)	9	-0.3	-1.6	10	2.5%	1
CN1CCN(C(=O)c2cccc(-c3ccc4nccn4c3)c2)CC1	1	-0.2	-5.4	-7	1.2%	5
CCN(CC)C(=O)c1sc(NC(=O)c2cc(-c3ccc(C)s3)nc3ccccc23)c(C(=O)OC)c1C	6	-1.0	-2.6	-13	4.9%	9
CCCCN1C(=O)C(CC(=O)NCc2cccc3ccccc23)CC(C(=O)N2CCOCC2)=C1C (configuration not stated)	6	-0.2	-2.5	8	5.4%	7
CC(C)NC(=O)N(C)C[C@H]1OCc2cnnn2CCCC(=O)N([C@H](C)CO)C[C@H]1C	-1	0.9	-2.1	9	-1.7%	2
COc1ccc(F)cc1-c1cc(C(=O)NCc2ccc(C(F)(F)F)cc2)[nH]n1	-10	-0.3	0.1	-13	4.6%	2
Cc1ccc[n+](CC(=O)c2ccc(-c3ccccc3)cc2)c1	-3	-0.4	-9.3	-5	0.3%	-1
O=C1c2ccccc2C(Nc2ccc3c(c2)OCCO3)N1c1ccccn1 (configuration not stated)	-16	2.2	-1.5	-4	-3.4%	-5
Cc1nc(-c2cccc(NC(=O)c3ccco3)c2)cs1	-3	1.3	-5.9	3	1.2%	0
COC(=O)/C(=C/Nc1ccc(O)cc1)[N+](=O)[O-]	-14	5.0	9.9	86*	-3.3%	-14
CC(C)N(C(=O)COC(=O)c1ccc(O)cc1)C(C)C	3	-0.1	0.6	0	-0.4%	6
COC(=O)c1sccc1NC(=O)c1ccnn1C	-2	0.1	1.4	-5	1.4%	-15
N#C/C(=C\c1ccccc1)c1n[nH]c(Cn2cncn2)n1	1	0.2	-2.2	-12	3.7%	1
CC(=O)c1ccc(S(=O)(=O)N2CCN(CC(=O)Nc3ccnn3C3CCCC3)CC2)cc1	2	0.0	2.1	-1	-0.9%	-1
CC(NC(=O)Nc1ccccc1Cl)c1ccc2c(c1)OCO2 (configuration not stated)	-2	2.6	-4.2	-22	0.0%	1
O=C(CSc1nnc(C2CC2)n1Cc1ccco1)NCC(F)(F)F	2	-0.6	4.7	-4	0.2%	1
O=C(O)c1ccc(CSc2nnc(Cc3ccccc3)o2)cc1	6	0.0	-0.8	-10	-6.5%[38.3 µM]	-5
CN(C)S(=O)(=O)c1ccccc1C#N	0	0.7	-0.8	-2	1.4%[38.3 µM]	-14
CC(=O)CCS(=O)(=O)c1ccc(NC(C)=O)cc1	4	0.6	1.6	-7	13%[38.3 µM]	4
COc1ccc([C@H]2C[C@H](n3cc(-c4ccc(F)cc4)nn3)[C@@H](O)CN2Cc2cccs2)cc1	1	.	0.1	.	5.3%	1
